From PubChem BioAssay
GALR2 ag: agonists of human galanin receptor 2 (GALR2); GALR2-expressing cells, agonist activation read-out; activation, %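 (tested at 5 µM)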; 140,000 compounds, 0.48% hits; AID 803;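 active means above mean plus 3 SD of all compounds, about 5% in these data, not always enough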;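 further: 0% = vehicle buffer wells and 100% = reference agonist at full effect; tested in CHO reporter cells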
Target sequence (O43603 whole entry, looked up): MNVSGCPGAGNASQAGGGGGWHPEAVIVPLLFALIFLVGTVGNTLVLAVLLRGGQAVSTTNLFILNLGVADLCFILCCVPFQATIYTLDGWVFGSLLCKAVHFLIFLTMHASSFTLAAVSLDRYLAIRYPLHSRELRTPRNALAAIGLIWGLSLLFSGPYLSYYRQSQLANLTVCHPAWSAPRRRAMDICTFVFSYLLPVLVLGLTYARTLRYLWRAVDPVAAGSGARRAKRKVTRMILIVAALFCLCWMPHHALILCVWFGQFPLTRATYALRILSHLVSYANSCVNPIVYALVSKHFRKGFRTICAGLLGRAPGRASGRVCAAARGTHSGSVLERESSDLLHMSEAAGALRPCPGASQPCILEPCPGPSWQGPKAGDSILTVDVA
INS promoter inh: TRM-6 insulin promoter activity inhibition | TRM-6 cells (human fetal islet line), insulin promoter-eGFP reporter, imaging; reporter expression induced with tamoxifen | 130,000 compounds, 0.9% hits | inhibition, % at 2 µM;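 active means inhibition above the mean plus 3 SD, with well images judged a real hit on visual review, cut at about 60% in these data, passing the limit was not always enough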
HSV replic up: HSV replication enhancement. HSV replication augmentation in cells, fold increase. AID 1956. 220,000 compounds, 0.005% hits. maximum fold increase;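 active means peak rise of 1.5-fold or more in the series; tested in PC3 cells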;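 further: first round at 10 µM; read as green reporter fluorescence; hits show the peak of a series up to 25 µM; 1 = signal of infected wells without compound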
PKD1 kinase inh: blocks activity of human protein kinase D1; 200,000 compounds, 0.056% hits; inhibition, %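 (about 10 µM by stock and volumes)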; PKD1 kinase fluorescence polarization assay; Q15139;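 active means inhibition of 50% or more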;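 further: controls were vehicle for no effect and a reference inhibitor for full effect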
RGS16-Gao HTS: RGS16-Galphao interaction regulator (human); O15492+P09471; bead-based flow cytometry RGS16-Galphao binding, fluorescence; actives lie on both sides; binding response (% of control), % at 10 µM; 220,000 compounds, 0.38% hits; AID 1441;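 active means below 25% or above 175%, edge rows of some plates excepted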;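 further: Galphao activated by GDP with aluminum fluoride before binding; 100% = wells without compound and 0% = beads without RGS; some results beyond the cut were filed as inactive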
Target sequence (O15492 whole entry, looked up): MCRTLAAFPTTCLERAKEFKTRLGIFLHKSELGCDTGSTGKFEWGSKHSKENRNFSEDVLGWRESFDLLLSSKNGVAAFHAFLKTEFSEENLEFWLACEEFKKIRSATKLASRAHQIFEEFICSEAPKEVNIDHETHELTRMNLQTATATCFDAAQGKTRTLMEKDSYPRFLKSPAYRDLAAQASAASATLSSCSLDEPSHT
Target sequence (P09471 whole entry, looked up): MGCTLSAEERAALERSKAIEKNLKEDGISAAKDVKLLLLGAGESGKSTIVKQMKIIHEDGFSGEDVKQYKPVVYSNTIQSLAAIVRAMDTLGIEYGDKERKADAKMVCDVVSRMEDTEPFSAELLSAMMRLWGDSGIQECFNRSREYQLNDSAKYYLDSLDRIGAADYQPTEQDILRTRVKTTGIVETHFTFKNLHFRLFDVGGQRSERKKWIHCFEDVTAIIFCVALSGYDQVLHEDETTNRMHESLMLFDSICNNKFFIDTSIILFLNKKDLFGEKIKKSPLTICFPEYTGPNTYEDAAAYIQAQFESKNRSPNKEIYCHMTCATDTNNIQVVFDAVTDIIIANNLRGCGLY
INS promoter inh cell count: second read-out of INS promoter inh, no call of its own (marks repeat the call); normalized cell count, %; measured here: cell count, toxicity; reference of the scale not given here;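 cells exposed to compound for 48 h; stained nuclei by imaging scaled within each plate; lower means fewer cells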
HSV replic up primary fold: also measured in HSV replic up; calls as there; fold increase; compound at 10 µM; measured here: primary screen fold increase 10 uM; tested in PC3 cells;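 GFP signal in the first replicate; 1 = infected wells without compound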
Numbers without * were called inactive; i = inactive; · = no result given.

SMILES	GALR2 ag	INS promoter inh	INS promoter inh cell count	HSV replic up	HSV replic up primary fold	PKD1 kinase inh	RGS16-Gao HTS
COC(=O)c1c(C)nc(C)c(C(=O)OC)c1-c1ccsc1	·	·	·	i	0.97	·	105
O=C(Cn1nnc(-c2ccccc2)n1)N/N=C/c1cc([N+](=O)[O-])c(Cl)cc1Cl	0.0	0	128	i	0.98	4	109
Cc1cccn2cc(-c3cc4ccccc4oc3=O)nc12	·	·	·	i	0.97	11	108
CCCn1nnnc1SCC(=O)N(C(C)C)C(C)C	-1.0	6	79	i	0.86	-3	59
C[n+]1ccccc1C1CCCC/C1=N\Nc1ccc([N+](=O)[O-])cc1[N+](=O)[O-] (configuration not stated)	-1.4	·	·	i	1.5	9	111
O=C(O)CCC(=O)NNC(=O)c1cccs1	·	·	·	i	0.98	-1	114
O=C1c2ccccc2C(=O)N1Cc1nc2ccccc2c(=O)n1CCCn1ccnc1	0.3	·	·	i	0.92	-2	106
COc1ccc(/C=N/n2cncn2)cc1COc1ccc(NC(C)=O)cc1	-2.8	1	78	·	·	3	103
Cc1ccc(S(=O)(=O)/N=C(\c2ccc(Cl)cc2)N2CCOCC2)cc1	-2.5	34	176	i	0.88	-12	106
NC(=O)NCC(=O)N1CCC(C(O)(c2ccccc2)c2ccccc2)CC1	·	·	·	i	1.2	·	103
CC(=O)NC(Cc1ccc(C(C)C)cc1)C(=O)NC1CCN(c2nc(C)cc(C)n2)CC1 (configuration not stated)	-2.4	·	·	i	0.93	3	113
CCCCNC(=O)CSc1nc2ccc(NC(=O)CSc3nnc(N)s3)cc2s1	-1.2	-3	108	i	0.98	-7	101
COc1ccc(-c2cc(C(F)(F)F)nc(S(=O)(=O)CCCC(=O)Nc3cccnc3Cl)n2)cc1OC	·	27	51	i	0.6	1	88
Cc1ccc(S(=O)(=O)N(C)CCCC(=O)Nc2cc(C)ccc2C)cc1	1.0	-2	93	·	·	7	66
CCn1cc(/C=C2\SC(=O)N(CC(=O)Nc3ccc4c(c3)OCO4)C2=O)c2ccccc21	-3.0	-38	105	i	0.88	6	102
OCC1(CCc2ccccc2)CCN(Cc2cccn2-c2cccnc2)CC1	·	·	·	i	0.91	3	102
Cc1ccc(SCCN2CCN(CC(C)C)CCC2=O)cc1	·	·	·	i	1	·	105
COC(=O)c1cc(NC(=S)NCc2ccc(Cl)cc2)cc(C(=O)OC)c1	-1.2	·	·	i	0.78	-9	102
O=C(NC1C/C(=N/O)c2cc3c(cc21)OCO3)C(F)(F)F (configuration not stated)	·	·	·	i	1	-8	97
C=CCSc1nc2ccccc2n1C(=O)/C=C/c1cc(OC)c(OC)c(OC)c1	1.4	29	41	·	·	-2	88

Ordered by value in PKD1 kinase inh (lowest first): some entries from above.
mol | PKD1 kinase inh
COc1ccc(/C=N/n2cncn2)cc1COc1ccc(NC(C)=O)cc1 | 3
CCn1cc(/C=C2\SC(=O)N(CC(=O)Nc3ccc4c(c3)OCO4)C2=O)c2ccccc21 | 6
Cc1cccn2cc(-c3cc4ccccc4oc3=O)nc12 | 11

(cont.)
SMILES	GALR2 ag	INS promoter inh	INS promoter inh cell count	HSV replic up	HSV replic up primary fold	PKD1 kinase inh	RGS16-Gao HTS
COc1ccc(OC)c(NC(=O)CCN2CCN(c3ccccc3F)CC2)c1	-0.7	-30	99	i	0.81	3	130
COc1ccc(CCNC(=O)CCSc2nc(-c3ccco3)cc(C(F)(F)F)n2)cc1	-1.4	0	97	i	0.91	-4	98
Cn1cc(CN2CCC(N3CCNC(=O)CC3)CC2)c(-c2ccccc2F)n1	·	·	·	i	1	8	96
CC(C)c1onc(C(=O)NCc2ccccc2)c1[N+](=O)[O-]	1.1	·	·	i	0.84	-10	72
COC(=O)Cc1cc(=O)[nH]c(/N=C(\N)Nc2ccc(C)cc2C)n1	-1.2	0	61	i	0.98	1	102
Cc1c(C)c2c(C)nn(-c3ccccc3)c2[nH]c1=O	0.8	·	·	i	0.99	1	109
COCCNC(=O)CSc1nc2nn(-c3ccccc3)c(=O)c-2c2n1CCCCC2	·	·	·	i	0.92	-7	92
Cc1ccc(S(=O)(=O)C2(C(=O)Nc3ccc(F)cc3)CC2)cc1	-1.1	·	·	i	0.94	-2	103
CC(CCc1ccccc1)NC(=S)NC1CCCCC1 (configuration not stated)	·	-29	91	i	1.1	3	99
Cn1cc(C=C2C(=O)CC(C)(C)CC2=O)c2ccccc21	-1.2	·	·	i	1	-9	102
COc1ccc(/C=c2/sc3n(c2=O)NC2(c4ccccc4)N(C)C(=O)N(C)C2(c2ccccc2)N=3)cc1 (configuration not stated)	0.2	-3	124	i	0.84	4	103
O=C(c1ccc(-c2ccccc2)cc1)C1CCCN(Cc2ccncc2)C1 (configuration not stated)	·	·	·	i	1.1	2	102
CCOc1ccc(-c2nnn(CC(=O)N3CCCC(C)C3)n2)cc1 (configuration not stated)	·	·	·	i	0.99	1	105
Cc1nc(N2CCc3ccccc3C2)[nH]c(=O)c1Cc1ccccc1	·	·	·	i	0.76	8	107
COc1ccc2cc(C(=O)N/N=C/c3sc4ccccc4c3O)ccc2c1	-2.1	-60	267	i	1.2	-23	96
Cc1ccc(NC(=O)C2=C(O)c3sccc3N(C)S2(=O)=O)cc1	-1.3	·	·	i	1.1	-5	101
COc1ccc2c(C=O)c[nH]c2c1	-0.7	9	123	i	1.1	-1	105
Nc1ncc2c(n1)CC(c1ccco1)CC2=O (configuration not stated)	-0.4	11	74	i	0.96	-11	95
CCCc1nnc(NC(=O)Cn2cnc3ccccc3c2=O)s1	-1.1	·	·	i	1.1	4	97
Cc1ccc(C(c2nnnn2C(C)(C)C)N2CCN(C3CCCC3)CC2)cc1 (configuration not stated)	-1.0	·	·	i	0.8	-2	106
O=C(Nc1cccnc1)c1cccc([N+](=O)[O-])c1	·	·	·	i	0.88	·	102
C=CCn1cnc2c(NCc3ccccc3)ncnc21	-0.8	-22	89	i	0.94	0	102
Cc1ccc(C(=O)N2CCN(c3ncccn3)CC2)o1	-1.8	-3	41	i	0.9	14	106
CCOc1ccc(N2Cc3ccccc3C2)cc1	-1.2	·	·	i	1.1	-5	·
COc1cccc(-c2nc(-c3cccs3)no2)c1	·	·	·	i	1.1	·	101
O=Cc1cn(CC(=O)N2CCc3ccccc32)c2ccccc12	·	·	·	i	0.93	-5	99
Cc1cccc2cc3c(N)c(C(=O)Nc4ccc(N5CCOCC5)cc4)sc3nc12	-1.6	-27	111	i	0.92	-11	71
CCCNC(=O)COC(=O)c1ccccc1OCc1ccc(Cl)cc1	-0.9	43	58	i	0.98	-2	101
Cc1cc(C)c2c(C)c(C(=O)NCc3ccc(S(N)(=O)=O)cc3)oc2c1	·	·	·	i	0.87	-5	99
COC(=O)/C(=N/Nc1ccccc1)N1CCCc2ccccc21	-1.2	·	·	i	0.87	-5	92
O=C(Cc1ccccc1)NC1c2ccccc2-c2ccccc21	1.3	·	·	i	1.1	-7	95
CN1C(=S)N(c2ccccc2)C(=O)/C1=C/c1ccco1	-1.0	25	97	i	1.1	-11	116
Cc1nc2cc(-c3ccccc3)ccc2o1	-0.4	35	134	i	0.85	-10	34
O=S(=O)(/N=C(/Nc1ccc(Cl)c(S(=O)(=O)Nc2ccccc2Cl)c1)c1ccc(F)cc1)c1ccccc1	·	-24	123	i	0.96	-2	97
COc1ccc(-n2c(SCC(=O)N3CCN(c4ccccc4)CC3)nc3c(c2=O)SCC3)cc1	-0.6	·	·	i	0.87	-7	105
CN(C(=O)COC(=O)c1cc(-c2ccc(Cl)s2)nc2ccccc12)C1CCS(=O)(=O)C1 (configuration not stated)	·	-64	120	i	1	-2	96
COc1ccc(S(=O)(=O)CCC(=O)NCCc2ccc(Cl)cc2)cc1	-2.7	·	·	i	1	8	103
N=c1nc(-c2ccccc2)ccn1O	-2.4	29	57	i	1	-5	101
O=C(Nc1ncc(Cc2cccc(Cl)c2)s1)c1cccs1	0.2	23	134	i	0.88	-4	98
CCCc1cc(=O)[nH]c(SCC(=O)NCCC2=CCCCC2)n1	·	·	·	i	1.1	3	103
COc1ccc(C(=O)/C=C/NCc2ccc(F)cc2)cc1OC	·	·	·	i	1.1	·	100
O=C(NCc1ccc2c(c1)OCO2)C1CC(c2ccc(Cl)c(Cl)c2)=NO1 (configuration not stated)	-1.5	11	93	i	0.9	-4	108
Fc1ccc(Cn2cccc2C2=NC(c3ccccc3)CO2)cc1 (configuration not stated)	·	-45	62	i	0.99	1	171
Cc1ccccc1Nc1c([N+](=O)[O-])ccc2c1=NC1(CCCCC1)N=2	-1.9	18	121	i	1.1	-4	108
Cc1cc(C)nc(-n2ncc3c2CCCC3=O)n1	·	-63	131	i	0.99	2	103
C#CCOCCOCCOCCNc1nc(N2CCN(C(=O)Cn3cc(CCO)nn3)CC2)nc(N2CCN(C(=O)[C@H]([C@@H](C)O)n3cc(CCCCN)nn3)CC2)n1	-0.9	35	114	i	0.76	2	103
O=C(NCCN1CCOCC1)C1CC(=O)N(c2ccc(F)c(Cl)c2)C1 (configuration not stated)	-0.3	-93	131	i	1	-7	102
CCOC(=O)c1oc2cccc(O)c2c1C	-0.1	-54	117	i	0.86	-5	104
O=C(Nc1cnn(Cc2ccc(F)cc2)c1)c1cnn2c(C(F)F)cc(-c3ccccc3)nc12	·	·	·	i	0.78	·	88
Cc1nnc(SCC(=O)NC2CCCCC2)s1	·	0	120	i	0.96	-2	98
O=C(COC(=O)c1ccc[nH]c1=O)NC1CCCCCCC1	·	-45	94	i	0.98	-4	107
COc1ccc(-c2c(C(F)(F)F)nn(C)c2NC(=O)c2ccco2)cc1	·	·	·	i	1.1	·	101
COc1ccc(/C=C2\N=C3CCCCCN3C2=O)cc1	·	·	·	i	1.1	-8	96
C/C(=N\NC(=O)CNc1cccc2ccccc12)c1ccccc1	·	·	·	i	1.4	4	97
O=C(CSc1nnc(Cc2ccccc2)o1)NCc1ccco1	0.7	-7	29	i	0.87	-6	103
Cc1cc2ncn(C(=O)N3CCCC3)c2cc1C	-3.1	-285	58	i	0.92	13	109
CC(C)(C)Cc1nnc(NS(=O)(=O)c2ccccc2)s1	·	·	·	i	0.98	-6	102
CN(Cc1cn(-c2ccccc2)nc1-c1ccc(F)cc1)C(=O)CCC(=O)O	-0.8	30	93	i	1	-1	100
CC(=O)Nc1ccc(-c2csc(NCc3ccccc3)n2)cc1	·	·	·	i	0.94	-4	115
CCOc1ccccc1NC(=O)c1c(Br)cnn1C	-0.2	6	59	i	1	-12	89
(cont.)
SMILES	GALR2 ag	INS promoter inh	INS promoter inh cell count	HSV replic up	HSV replic up primary fold	PKD1 kinase inh	RGS16-Gao HTS
O=C(Nc1ccc(-c2cn3ccsc3n2)cc1)C1CCCC1	-1.7	15	108	i	0.54	2	90
Cc1cc(C)n(C(=O)CN2C(=O)COc3ccccc32)n1	-1.3	32	97	i	1	-1	133
O=C(O)CC1c2ccccc2S(=O)(=O)N1Cc1ccccc1 (configuration not stated)	·	·	·	i	0.75	·	99
CC1CCN(S(=O)(=O)c2cccc(C(=O)N(Cc3ccccc3)c3ccccn3)c2)CC1	·	·	·	i	0.94	-3	101
COC(=O)c1cccc(Oc2nc(N3CCOCC3)nc(N3CCOCC3)n2)c1	-0.5	21	116	·	·	-4	·
Cc1cccc(CC2S/C(=N/N=C/c3ccco3)N(c3ccccc3)C2=O)c1 (configuration not stated)	2.9	10	106	i	0.86	-6	106
CCCCCCC(=O)N(O)C1CC(=O)N(c2ccccc2)C1=O (configuration not stated)	-0.4	·	·	i	1	2	98
O=C(CCS(=O)(=O)c1cccc2nonc12)NCCc1ccccc1Cl	-2.1	·	·	i	0.98	8	103
Cc1nn2c(N3CCN(C4CCCC4)CC3)cc(C(C)(C)C)nc2c1-c1ccccc1	-3.2	-73	87	i	1.2	-6	98
CN(C(=O)COc1ccc(Br)cc1Cl)C1CCCCC1	·	·	·	i	0.93	-11	95
Cc1nnc(SCC(=O)N2c3ccccc3CC2C)s1 (configuration not stated)	-1.6	-208	102	i	1	3	96
Cn1c(-c2ccc3ccccc3n2)[n+](C)c2ccccc21	·	·	·	i	1	·	102
Cc1cc(-c2nnnn2-c2cc(Cl)cc(Cl)c2)no1	·	·	·	i	0.92	·	95

Profiles from above:
Listed for `Cc1cc(C)nc(-n2ncc3c2CCCC3=O)n1` = GALR2 ag: ·; INS promoter inh: -63; INS promoter inh cell count: 131; HSV replic up: i; HSV replic up primary fold: 0.99; PKD1 kinase inh: 2; RGS16-Gao HTS: 103
Listed for `COc1ccc(-c2c(C(F)(F)F)nn(C)c2NC(=O)c2ccco2)cc1` = GALR2 ag: ·; INS promoter inh: ·; INS promoter inh cell count: ·; HSV replic up: i; HSV replic up primary fold: 1.1; PKD1 kinase inh: ·; RGS16-Gao HTS: 101
Listed for `CN1C(=S)N(c2ccccc2)C(=O)/C1=C/c1ccco1` = GALR2 ag: -1.0; INS promoter inh: 25; INS promoter inh cell count: 97; HSV replic up: i; HSV replic up primary fold: 1.1; PKD1 kinase inh: -11; RGS16-Gao HTS: 116
